Bioassay records (PubChem)
TRPV1 potentiator = enhances activation of the human vanilloid receptor TRPV1 | Q8NER1 | TRPV1-expressing cells, Fluo-8 calcium influx, capsaicin EC20 potentiation; host cell line not named in the record; control for the full effect not named in the record | potentiation, % at 8.33 µM | 320,000 tested, 0.02% active | AID 540277; active means potentiation above 80%; inconclusive means 30% to 80%; inactive means below 30%; also: 0% is about no effect
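Cells expressing TRPV1 were dye-loaded with Fluo-8 and read kinetically: 10 s baseline, 3 min after compound (agonist portion), then 2 min after EC20 capsaicin (allosteric enhancer portion). Calcium-bound dye fluorescence at 480/520 nm.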
TRPML1 inh = inhibitors of human TRPML1 channel | TRPML1-inducible cells, Ca2+ dye fluorescence, FDSS; hits give low values; inhibition of EC80 agonist-evoked calcium signal | activity change, negative = inhibition, % (no concentration beside the values) | 390,000 tested, 0.02% active; in the data active means activity change below about -50%; inconclusive means about -30% to -50%; inactive means above about -30%;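 also: stimulus is agonist 54-4 at its EC80 concentration; % is scaled to controls: 0 for no effect and ±100 for the full control effect; compound concentration not given in the record; the text of the record puts the active cut at -80%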
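TRPML1-DL cells, Tet-induced overnight (~16 h, 37 °C) at 1,500 cells/well, were loaded with Ca8 no-wash dye plus quencher for 45-90 min at room temperature. Compounds were pinned during FDSS kinetic reading; agonist 54-4 at EC80 (4 uM final) then added.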
TRPML1 ag = activates the human TRPML1 channel. Q9GZU1. TRPML1-expressing cells, Ca2+ dye fluorescence, FDSS; host cell line not named in the record; reference of the full effect not given here. activation, % (test concentration not listed). 410,000 tested, 0.12% active. AID 624414; in the data active = activation above about 50%; inconclusive = about 30% to 50%; inactive = below about 30%; also: 0% is about no effect; the text of the record puts the active cut at 80%
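Tet-induced TRPML1-DL cells, 1,500 per well, cultured overnight, were loaded with a no-wash Ca2+ dye for 45–90 min. Calcium fluorescence was recorded on the FDSS for 110 s after compound addition, before the EC80 agonist (4 uM 54-4) was added.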
D2 PAM = potentiates the human D2 dopamine receptor allosterically; 360,000 tested, 0.23% active; potentiation, % (no concentration beside the values); AID 624464; DiscoveRx D2 beta-arrestin cells, luminescence, 90 min; 100% = 57 uM dopamine signal; active = potentiation of 50% or more; inconclusive = 30% to 50%; inactive = 30% or less;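 also: compound concentration not given in the record; tested on top of an EC20 dose of dopamine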
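PathHunter D2 cells, attached overnight at 37 deg C, received compound in DMSO plus dopamine at EC20 (50 nM final) for 90 min at 37 deg C. Beta-arrestin recruitment was read as luminescence after 1 h with detection reagent at ambient temperature.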
Six1-Eya2 blk = Six1/Eya2 interaction inhibition; Q15475+O00167; AlphaScreen GST-Six1/His-Eya2 binding, biochemical; hits give low values; control for the full effect not named in the record; activity change, % (concentration not given with the values); 360,000 tested, 0.56% active; AID 651725; in the data active = activity change below about -65%; inconclusive = about -30% to -65%; inactive = above about -30%; also: % is scaled to controls: 0 for no effect and ±100 for the full control effect
Target sequence (O00167 whole entry, looked up): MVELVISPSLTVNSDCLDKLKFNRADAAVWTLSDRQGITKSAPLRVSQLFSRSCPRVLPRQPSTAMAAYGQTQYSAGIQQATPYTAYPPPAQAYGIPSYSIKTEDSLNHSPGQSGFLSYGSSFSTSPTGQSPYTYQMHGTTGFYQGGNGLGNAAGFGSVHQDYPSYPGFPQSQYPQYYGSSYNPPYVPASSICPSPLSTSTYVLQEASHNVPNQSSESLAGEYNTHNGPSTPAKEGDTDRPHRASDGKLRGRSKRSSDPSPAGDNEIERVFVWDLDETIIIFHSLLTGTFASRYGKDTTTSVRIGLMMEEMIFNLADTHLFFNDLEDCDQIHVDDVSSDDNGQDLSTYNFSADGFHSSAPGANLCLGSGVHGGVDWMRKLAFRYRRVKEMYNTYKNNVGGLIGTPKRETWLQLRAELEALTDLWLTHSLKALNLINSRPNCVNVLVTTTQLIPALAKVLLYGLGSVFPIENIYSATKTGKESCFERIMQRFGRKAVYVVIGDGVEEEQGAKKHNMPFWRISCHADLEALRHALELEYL
Target sequence (Q15475 whole entry, looked up): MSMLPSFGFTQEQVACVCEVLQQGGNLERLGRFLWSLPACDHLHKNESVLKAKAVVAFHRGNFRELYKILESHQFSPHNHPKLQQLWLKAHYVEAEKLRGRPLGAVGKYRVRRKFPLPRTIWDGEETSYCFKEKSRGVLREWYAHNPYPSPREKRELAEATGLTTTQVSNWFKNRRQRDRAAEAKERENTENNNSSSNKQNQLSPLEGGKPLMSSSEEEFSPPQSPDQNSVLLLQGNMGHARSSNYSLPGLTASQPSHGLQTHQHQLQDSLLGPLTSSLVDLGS
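Six1/Eya2 binding was read as AlphaScreen signal after compounds were pinned into GST-Six1 plus His-tagged Eya2 (5X stock 250/500 nM) in pH 8.0 Tris/NaCl/TCEP buffer, beads added, then incubated 1 h, 37 C, dark.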
CtBP-E1A inh = inhibitors of CtBP/E1A interaction | AlphaScreen GST-E1A/His-CtBP binding, 1536-well; hits give low values; control for the full effect not named in the record | activity change, % (test concentration not listed) | 340,000 tested, 0.49% active | AID 651724; in the data active means activity change below about -65%; inconclusive means about -30% to -65%; inactive means above about -30%; also: % is scaled to controls: 0 for no effect and ±100 for the full control effect; compound concentration not given in the record
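GST-E1A and His-tagged CtBP (125 nM each as 5X stock) were preincubated with pin-transferred compound for 2 h at 37 °C in the dark, then glutathione donor and nickel acceptor beads were added for 1 h before AlphaScreen reading.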
An asterisk follows results filed as active; u = inconclusive; x = not tested or not shown; & = joins results of further samples.

Sequence of screens – TRPV1 potentiator | TRPML1 inh | TRPML1 ag | D2 PAM | Six1-Eya2 blk | CtBP-E1A inh
- COc1ccc(OCc2nnc(SCC(=O)Nc3ccc(C)cc3)o2)cc1
→ 8 | -3 | 0.1 | 2 | 3 | -3
- CC(OC(=O)c1ccccc1O)C(=O)Nc1ccc(Cl)cn1 (centres undefined)
→ -4 | 6 | 0.4 | -2 | -5 | -22
- COc1ccc(NC(=O)C(c2ccccn2)N(C(C)=O)c2ccc(C)cc2)cc1 (centres undefined)
→ 2 | -16 | 0.1 | -19 | -1 | 6
- COc1ccc2c(c1)-c1c(sn(-c3ccccc3)c1=S)C(C)(C)N2
→ -1 | 8 | 0.8 | -11 | -17 | -5
- Cn1nc(-c2ccccc2)cc1NC(=O)Nc1ccc(F)cc1
→ -13 | -2 | 0.5 | -1 | 17 | 0
- CN1CCN(CCC=C2c3ccccc3Sc3ccc(S(=O)(=O)N(C)C)cc32)CC1
→ 0 | 19 | 2.7 | -3 | 0 | 5
- O=C(NNC(=O)C1CC1)c1cccc([N+](=O)[O-])c1
→ -5 | -9 | -0.6 | 5 | 2 | 5
- CC1Cc2cccc3c(O)c(C(=O)c4nn[nH]n4)c(=O)n1c23 (centres undefined)
→ -3 | 0 | 0.1 | -3 | -4 | 3
- CCC(=O)N(Cc1ccc(C)cc1)Cc1cc2cc3c(cc2[nH]c1=O)OCO3
→ -10 | -2 | 1.9 | -14 | 5 | 6
- CCOc1ccccc1NC(=O)NC1Cc2ccccc2C1
→ 17 | -4 | 1.1 | -10 | 5 | x
- CCOC(=O)Cc1csc(NC(=O)C(C)(C)C)n1
→ -15 | 0 | -0.7 | -9 | 2 | 8
- O=C1/C(=C/c2ccc(O)cc2)CCc2ccc([N+](=O)[O-])cc21
→ 1 | 12 | 0.1 | -7 | 4 | -5
- CC(C)(C)C(=O)CN1C2=NCCCN2c2ccccc21
→ 4 | 16 | 0.1 | -7 | 10 | 8
- N=C1C(c2nc(-c3ccc(Br)cc3)cs2)=C(O)CN1NC(=O)c1ccc([N+](=O)[O-])cc1
→ 27 | 4 | -0.4 | 2 | 10 | x
- Cc1ccc(-n2c(C)nnc2SCC(=O)NC2CCCC2)cc1
→ 3 | -14 | -0.1 | -4 | -12 | -2
- O=C(CC1S/C(=N/N=C2CCCCCC2)NC1=O)Nc1ccccc1C(F)(F)F (centres undefined)
→ 13 | -3 | -0.5 | -8 | 6 | -4
- COc1cc(OC)cc(C(=O)NCC(=O)NCCN2C(=O)S/C(=C\c3ccccc3Cl)C2=O)c1
→ 2 | 42 | -1.4 | -9 | -18 | x
- Cc1ccc2c(c1)sc(=NC(=O)C1CC1)n2C
→ 7 | -9 | -0.2 | -6 | 4 | -1
- O=C(NCC1CCCO1)c1cc(S(=O)(=O)N2CCCC2)c(Cl)cc1Cl (centres undefined)
→ -17 | 1 | -1.3 | -1 | -2 | 3
- O=C(N/N=C/c1cccn1-c1ccccc1)c1ccncc1
→ 11 | 42 | 0.3 | -11 | -14 | 7
- CCOC(=O)C1(Cc2ccccc2C)CCCN(Cc2ccc(NC(C)=O)cc2)C1 (centres undefined)
→ -14 | 12 | -0.5 | -5 | -4 | 3
- CCC(c1nnnn1Cc1ccc2c(c1)OCO2)N1CCN(c2ccc(OC)cc2)CC1 (centres undefined)
→ 12 | -4 | 1.4 | -31 | -25 | u
- Oc1ccccc1-c1nc(NCCN2CCOCC2)c2ccccc2n1
→ -11 | 26 | 0.6 | -37 | -5 | -14
- O=C(NCc1ccc(F)cc1)c1cccc(S(=O)(=O)N2CCOCC2)c1
→ -10 | -12 | -0.4 | 0 | 2 | 1
- CC(C(=O)Nc1ccccc1-c1ccccc1)N1CCN(Cc2ccccc2)CC1 (centres undefined)
→ -24 | 8 | 3.8 | -16 | -5 | -19
- O=C(CSC(=S)N1CCCC1)c1ccccc1
→ -4 | 9 | -0.6 | -24 | 0 | 9
- CCC(C)NC(=O)c1cc(C)no1 (centres undefined)
→ 6 | -20 | 2.3 | -8 | 2 | 1
- CC(C)c1nc2cc(C(=O)N3CCN(c4cnccn4)CC3)ccc2o1
→ 24 | -6 | -0.2 | 10 | -1 | 0
- Cc1cccc(CCNS(=O)(=O)c2ccc3c(c2)NC(=O)C(C)S3)c1 (centres undefined)
→ 4 | 17 | 1.7 | -1 | 4 | x
- COc1cccc(NC(=O)c2cccc(C(=O)Nc3cccc(OC)c3)n2)c1
→ 22 | -2 | 3.3 | 4 | 1 | 7
- Cn1c(=O)c2cn(-c3cccc4ccccc34)cc2n(C)c1=O
→ u | -1 | -0.3 | 10 | -7 | 2
- CCC(C)C(NC(=O)c1ccccc1)C(=O)Nc1ccc(S(=O)(=O)Nc2cc(C)nc(C)n2)cc1 (centres undefined)
→ 1 | 50 | 2.4 | 1 | -9 | -4
- C/C(=N\N1CCN(Cc2ccc(Cl)cc2)CC1)c1ccc(F)cc1
→ -3 | 40 | 1.1 | -15 | -12 | -6
- Cc1ccc(NC(=O)C2C3C=CC4(O3)C2C(=O)N(CCCN2CCCC(C)C2)C4C(=O)NC2CCCCC2)cc1 (centres undefined)
→ 2 | 6 | 0.4 | -7 | 1 | -2
- CS(=O)(=O)Nc1cccc(C2=NN(C(=O)c3ccco3)C(c3cccs3)C2)c1 (centres undefined)
→ 9 | 5 | 1.1 | u | -11 | -4
- O=C(C[C@@H]1C/C=C\CC[C@@H](Cc2ccc(F)cc2)C(=O)OC[C@@H]2CCCN2C1=O)N[C@H](CO)Cc1ccccc1
→ x | -10 | 0.9 | x | -4 | -17
- O=C(NC1CCCC1)c1ccc(CS(=O)(=O)c2ccc(Br)cc2)o1
→ 17 | -4 | 1.2 | -2 | 0 | 6
- Cc1ccc(C(=O)/C=C/Nc2ccc3c(c2)OCO3)cc1
→ 1 | -3 | 0.6 | -4 | -1 | 0
- CCOC(=O)CC1COCCN1C(=O)c1cc(COc2ccc(F)c(F)c2)on1 (centres undefined)
→ -13 | -3 | -0.6 | -8 | 1 | 4
- CCN([C@H](CO)CC(C)C)S(=O)(=O)c1ccccc1
→ x | 35 | -0.6 | -9 | 5 | -2
- O=[N+]([O-])c1ccc(N=Nc2c(O)[nH]c3ccc(F)cc23)cc1
→ -32 | 1 | -0.9 | -6 | -16 | -7
- N#Cc1c(-c2ccccc2)cc(-c2ccc(O)cc2)nc1N
→ -12 | 18 | 1.1 | -4 | -25 | u
- COc1ccc(OCCSc2nnc3c(Cl)cc(Cl)cn23)cc1
→ -11 | 7 | -0.2 | -20 | -16 | -15
- COc1cc(OC)c(NC(=O)c2cccc(F)c2)cc1Cl
→ 3 | -5 | -0.7 | -9 | 1 | -1
- CN(C(=O)c1ccc(N2CCCCC2)c([N+](=O)[O-])c1)C1CCS(=O)(=O)C1 (centres undefined)
→ x | -8 | 0.0 | -2 | 9 | 2
- Cc1ccc2nc(/C(C#N)=C\c3ccc(N4CCCCC4)c([N+](=O)[O-])c3)[nH]c2c1
→ 12 | -13 | -0.6 | -5 | u | -14
- COc1ccc(OC)c(Nc2nc(N)c([N+](=O)[O-])c(NC3CCCCC3)n2)c1
→ 3 | 12 | 1.1 | -8 | -2 | x
- COc1ccc(CCNC(=O)C(=O)NCC2CCCN2S(=O)(=O)c2cc(C)ccc2C)cc1 (centres undefined)
→ 19 | 12 | 1.9 | 12 | 1 | 0
- CCOC(=O)c1c(NC(=O)c2nc3n(n2)C(C(F)F)CC(C)N3)sc2c1CCCC2 (centres undefined)
→ u | 6 | 0.5 | 8 | 0 | -2
- CCOc1ccc(N/C(SCc2cccc([N+](=O)[O-])c2)=C(/C#N)C(N)=O)cc1
→ 5 | 45 | -0.3 | -5 | -1 | -16
- CN1CCc2nc(SCCOc3ccccc3)c(C#N)cc2C1
→ u | 3 | -0.4 | -23 | -28 | 6
- Cc1ccnc(NC(=O)CSc2ccccn2)c1
→ 5 | 21 | -1.3 | -20 | 9 | x
- Cc1cc(C)nc(SCc2ccc(Cl)cc2)n1
→ -9 | -19 | 0.4 | -1 | 33 | -11
- COc1ccccc1C(=O)Nc1nc2cc3c(cc2s1)OCCO3
→ -1 | -1 | -0.1 | 0 | 4 | 0
- CCc1nc2c(OCCC3CCCCC3)cccn2c1N(C=O)Cc1ccc(OC)cc1
→ x | x | 0.0 | -5 | -16 | -18
- COCCn1c(SCc2ccccc2Cl)nc2c1c(=O)[nH]c(=O)n2C
→ u | 3 | 0.5 | -9 | 0 | 8
- C=CCNC(=O)c1ccc(N(Cc2ccc(Cl)cc2)S(C)(=O)=O)cc1
→ -3 | -12 | 0.7 | -2 | 5 | -2
- CC(=O)NC(c1cccc(F)c1)c1nc(-c2cc(F)cc(Cl)c2)cs1 (centres undefined)
→ x | 48 | 1.1 | -10 | 8 | -23
- OCC1CCCN(c2nc(CN3CCCCC3)nc3scc(-c4ccccc4)c23)C1 (centres undefined)
→ -1 | -3 | 1.6 | -4 | -1 | -2
- O=C(COC(=O)c1ccco1)NCC1CCCCC1
→ 13 | 6 | 1.0 | -7 | 6 | 0

Entries shown so far that contain a furan ring, fused or not, in the order listed:
Sequence of screens – TRPV1 potentiator | TRPML1 inh | TRPML1 ag | D2 PAM | Six1-Eya2 blk | CtBP-E1A inh
- CS(=O)(=O)Nc1cccc(C2=NN(C(=O)c3ccco3)C(c3cccs3)C2)c1 (centres undefined)
→ 9 | 5 | 1.1 | u | -11 | -4
- O=C(NC1CCCC1)c1ccc(CS(=O)(=O)c2ccc(Br)cc2)o1
→ 17 | -4 | 1.2 | -2 | 0 | 6
- O=C(COC(=O)c1ccco1)NCC1CCCCC1
→ 13 | 6 | 1.0 | -7 | 6 | 0

(continued)
Sequence of screens – TRPV1 potentiator | TRPML1 inh | TRPML1 ag | D2 PAM | Six1-Eya2 blk | CtBP-E1A inh
- Cc1ccc(CCNC(=O)CN(c2ccc(C)cc2)S(=O)(=O)c2c(C)noc2C)cc1
→ -9 | -7&19 | 1.1&2.8 | -2 | 4 | x
- COC(=O)c1ccc(C)c(NS(=O)(=O)c2ccc(OC)c(OC)c2)c1
→ 6 | -2 | -0.2 | -3 | -7 | u
- COC(=O)[C@@]1(Cc2ccc(OC)cc2)[C@H]2c3cc(C(=O)N4CCCC4)n(CCN4CCOCC4)c3C[C@H]2CN1C(=O)c1ccccc1
→ x | x | 0.1 | x | -18 | 3
- CC(Sc1n[nH]c(-c2cccs2)n1)C(=O)Nc1ccccc1F (centres undefined)
→ -4 | -2 | 1.1 | 2 | 4 | 0
- O=C(OCC1OC(n2cc(Br)c(=O)[nH]c2=O)C(Br)C1O)c1ccccc1 (centres undefined)
→ -12 | 28 | 1.0 | 1 | 0 | x
- CCOc1nc(NC(=O)NS(=O)(=O)c2ccccc2F)nc(-c2ccccc2)n1
→ u | -2 | -0.9 | -6 | 3 | 2
- Cc1cccc(NC(=O)c2ccc3c(c2)OCCO3)c1C
→ -7 | 12 | 0.2 | -10 | 3 | 5
- COc1cc(OC)cc(C(=O)Nc2ncc3c(n2)CC(C)(C)CC3=O)c1
→ 0 | -4 | -0.6 | -3 | 6 | -4
